S aureus helic – blocks Staphylococcus aureus DNA helicase; purified S. aureus helicase, fluorescence unwinding assay; about half of the hits fall short of the stated cut; inhibition, %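 (tested at about 80 µM)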; hit rate 0.05% among 120,000;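 active = both duplicates at 50% or more, or one of them with a favoured structure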;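 note: 0% = mean of negative control wells and 100% = mean of positive control wells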
MgrA DNA FP – alters Staphylococcus aureus MgrA binding to DNA; inhibition, %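 (about 10 µg/mL by stock and volumes)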; fluorescence polarization; AID 602314; hit rate 0.13% among 84,000;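 active = above 50% in either of two replicates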;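 note: 0% = protein plus DNA without compound and 100% = DNA alone without protein; higher means less MgrA bound to DNA so lower polarization; one replicate is shown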
* hit, by the source's call; · = not tested or not shown; & = joins results of further samples. These rows are one share of the data; rates above refer to the full screens.

The line under a structure holds: S aureus helic | MgrA DNA FP
- Cc1ccc(C)n1-c1ccc(-c2ccn[nH]2)cc1
    · | -0.6
- CCOC(=O)c1cn[nH]c1C(F)(F)F
    · | -2.3
- CCN1CCN(CCN)CC1
    14.0 | ·
- C=CCN1C(=O)/C(=C\c2ccc(O)c(OC)c2)C(=O)NC1=S
    5.0 | 13.0
- Cc1ccc(N2C(=O)NC(=O)/C(=C\c3cc4c(cc3Br)OCO4)C2=O)cc1
    · | 21.0
- Cc1cc2nn(CN3CCCC(C)C3)c(=S)n2c2ccccc12 (centres undefined)
    -4.0 | ·
- CCNC(=O)N(c1ccccc1)c1ccccc1
    -17.0 | ·
- O=C(CSCCO)Nc1ccccc1
    9.0 | 1.0
- COC(=O)c1cc(=O)n2c(nc3cc(C(F)(F)F)ccc32)s1
    0.0 | ·
- CCN(CC(=O)Nc1ccc(NC(C)=O)cc1)C(=O)C1CCCC1
    9.0 | ·
- C=CCN1C(=O)NC(=O)/C(=C\c2cn(Cc3ccccc3)c3ccccc23)C1=O
    -26.0 | 43.0
- Cc1cccc(NC(=O)Cn2c(=O)oc3cc(S(=O)(=O)NCc4ccccc4)ccc32)c1C
    -3.0 | ·
- COc1cc(C(=O)Oc2ccc3c(c2)OCC3=O)cc(OC)c1OC
    -1.0 | 0.9
- Cc1ccc(C(=O)c2ccccc2C(=O)O)cc1
    · | 2.0
- O=CNC(=O)c1ccccc1C(=O)O
    2.0 | 0.0
- NC(=O)N/N=C1\CCc2ccccc21
    1.0 | ·
- CN(C)CCn1c(=S)[nH]c2ccccc2c1=O
    7.0 | ·
- CN1C(=O)Cc2cc(S(=O)(=O)N3CCCCC3)ccc21
    -2.0 | 0.2
- Cc1ccc(Nc2nc(N)nc(CN3CCN(C(=O)C4COc5ccccc5O4)CC3)n2)cc1 (centres undefined)
    -3.0 | ·
- C/C(=N\N1CCN(C2c3ccccc3-c3ccccc32)CC1)c1cccnc1
    17.0 | -0.2
- Cn1ncc(CO)c1C(F)(F)F
    · | -1.1
- N#CC(C#N)=C(c1ccccc1)c1ccccc1
    5.0 | 0.4
- CCOc1cc(CNc2ccc(N3CCOCC3)cc2)ccc1OCc1ccccc1
    5.0 | 2.0
- Cc1ccc(S(=O)(=O)N2N=C3CCCCC3C2(O)C(F)(F)F)cc1 (centres undefined)
    4.0 | ·
- Cc1ccccc1OCC(=O)NC(C)C
    -10.0 | ·
- CCCCn1c(CNC(=O)OC(C)(C)C)n[nH]c1=S
    · | -0.4
- CCOC(=O)c1ccc(NC(=O)C2CC(=O)N(C)C(=Nc3ccc(C)c(Cl)c3)S2)cc1 (centres undefined)
    · | -0.7
- O=C(CCCc1ccccc1)OCn1nnc2ccccc2c1=O
    15.0 | -0.6
- Cc1noc(C)c1COC(=O)c1ccc2c(c1)S(=O)(=O)N=C1CCCCCN12
    -15.0 | ·
- O=C(Nc1ccc(F)cc1F)Nc1noc2c1COc1ccccc1-2
    -10.0 | 0.9

5 records picked at random from the list so far, as already listed:
The line under a structure holds: S aureus helic | MgrA DNA FP
- N#CC(C#N)=C(c1ccccc1)c1ccccc1
    5.0 | 0.4
- O=C(CCCc1ccccc1)OCn1nnc2ccccc2c1=O
    15.0 | -0.6
- O=C(Nc1ccc(F)cc1F)Nc1noc2c1COc1ccccc1-2
    -10.0 | 0.9
- CN(C)CCn1c(=S)[nH]c2ccccc2c1=O
    7.0 | ·
- CCCCn1c(CNC(=O)OC(C)(C)C)n[nH]c1=S
    · | -0.4

Later entries
The line under a structure holds: S aureus helic | MgrA DNA FP
- CN(C)CCNc1ccc(Cl)nn1
    3.0 | 0.7
- CSc1cccc(NC(=S)NN(C)C)c1
    · | -2.0
- CCOC(=O)C1(O)c2ccccc2NC(=O)N1C (centres undefined)
    6.0 | 1.2
- CC(C)N(Cc1ccccc1)C(=O)CSc1nnc(-c2ccco2)n1-c1ccccc1
    -8.0 | ·
- CNC(=O)c1cc2c(=O)n3cc(C)ccc3nc2nc1NCC1CCCO1 (centres undefined)
    -1.0 | 1.7
- Cn1nc(C(=O)NCCN(Cc2ccco2)C2CCCC2)c2c1-c1ccccc1OC2
    7.0 | 0.0
- COC(=O)C1CNc2ccccc2C1=O (centres undefined)
    -4.0 | 6.4
- CC(C)N(Cc1ccccc1)CC(O)COc1ccc(S(=O)(=O)N2CCOCC2)cc1Cl (centres undefined)
    5.0 | ·
- CC(C)NC(=O)COc1ccccc1C#N
    -3.0 | ·
- S=c1nc(-c2cccs2)[nH][nH]1
    -13.0 | ·
- Cc1ccc2nc(COC(=O)C3=COCCO3)cc(=O)n2c1
    -17.0 | ·
- CS(=O)(=O)c1nnnn1-c1ccc2c(c1)OCO2
    5.0 | -1.5
- CC(=O)N=c1scc(C)n1C(C)(C)C
    -3.0 | ·
- c1ccc(CCCNCc2nnc(-c3ccccc3)o2)cc1
    3.0 | ·
- CCCc1c(OCCCCc2nn[nH]n2)ccc(C(C)=O)c1O
    · | 0.0
- Cc1ccccc1CS(=O)(=O)c1c[nH]c2ccccc12
    3.0 | ·
- O=C(O)C1CCC(C(=O)O)CC1 (centres undefined)
    · | -0.2
- CCCC(=O)c1ccc(O)cc1
    6.0 | ·
- O=[N+]([O-])c1cc(Cl)c(-n2cccc2)cc1N1CCCCC1
    · | 1.5
- Cc1cc(/C=N/N2CCOCC2)c(C)n1-c1cccc(S(=O)(=O)N2CCOCC2)c1
    7.0 | ·
- CCOC(=O)CCSc1ccccn1
    -2.0 | 5.0
- COC(=O)c1ccc(N2CCN(C)CC2)c(NC(=O)C(C)(C)Oc2ccc(Cl)cc2)c1
    10.0 | 0.2
- CCC1(C)NC(=O)N(/N=C/c2c(F)c(F)c(F)c(F)c2F)C1=O (centres undefined)
    -10.0 | ·
- Cc1cc(=O)n(C(C)C(=O)N2CCN(c3ccccc3)CC2)c2c1c(C)nn2-c1ccccc1 (centres undefined)
    11.0 | ·
- O=C(O)C(=O)/C=C(\O)c1ccccc1
    · | -1.6
- Nc1cccc2c1C(=O)N(C(=O)c1cccc(S(=O)(=O)N3CCOCC3)c1)C2=O
    -6.0 | ·
- CC(Sc1nncs1)C(=O)NCc1ccc2c(c1)OCO2 (centres undefined)
    -4.0 | ·
- Cc1[nH]c(=O)n(C(C)(C)C)c(=O)c1C
    -1.0 | -2.9
- Cc1ccccc1NC(=O)C(NC1CCCCC1)C(C)C (centres undefined)
    6.0 | -0.8
- O=S(=O)(c1ccccc1)N1CCC2(CC1)OCCO2
    · | -2.9
- O=C(NC1CC1)c1n[nH]c(=O)c2ccccc12
    -1.0 | -2.2
- CC(C)(C)n1ncc2c(=O)n(Cc3cccc4ccccc34)cnc21
    16.0 | 1.0
- O=c1c(-c2ccc3c(c2)OCCO3)c(C(F)(F)F)oc2cc(O)ccc12
    4.0 | ·
- CCC(=O)Nc1ccc2c(c1)C(=O)OC2
    9.0 | -1.6
- O=C(O)C1CSC(c2cccs2)N1 (centres undefined)
    0.0 | 0.6
- CCCNC(=O)OCN1C(=O)c2ccc(N)cc2C1=O
    · | -3.6
- COc1cc2cc(=O)[nH]c(C)c2cc1OC
    6.0 | ·
- CCSc1nc(N(C)C)nc(N2CCOCC2)n1
    -13.0 | 2.8
- CC(=O)N1CCN(c2ccccc2N)CC1
    17.0 | -1.1
- Cc1ccc(-c2nnc(-c3ccncc3)o2)c(C)c1
    · | 0.6
- O=C(Nc1ccccc1)c1cc2ccccc2c(=O)o1
    3.0 | -0.3
- Cc1ccc(C(=O)COC(=O)CC2Oc3ccccc3NC2=O)c(C)c1 (centres undefined)
    -13.0 | ·
- CCSC1=C(C#N)C(=O)NC(C)S1 (centres undefined)
    -32.0 | ·
- CCn1c(C)cc2c(c1=O)C(c1cccc(OC)c1)C(C#N)=C(N)O2 (centres undefined)
    7.0 | ·
- COc1ccccc1NC(=O)CSc1nnc2c3c4c(sc3nc(SC)n12)CN(C)CC4
    3.0 | ·
- Cc1sc(N)nc1C12CC3CC(CC(C3)C1)C2
    -14.0 | 1.1
- CC(NC1=NCCN1)C(=O)O (centres undefined)
    16.0 | -5.8
- Cc1ccc(CSc2nnc([C@@H](N)C(C)C)o2)cc1
    0.0 | -4.5
- Cc1nc(SCC(=O)C(C)(C)C)[nH]c(=O)c1CCC(C)C
    · | -1.3
- Cc1csc2sc(-c3ccn[nH]3)c(C)c12
    · | -1.4
- c1ccc(OCCSc2nnc3c4ccccc4nc(-c4ccccc4)n23)cc1
    -9.0 | -1.0
- COc1ccc(CCN2COc3cc4c(cc3C2)OCO4)cc1
    6.0 | ·
- O=C(Cc1cccs1)Nc1ccccc1
    4.0 | 1.3
- CC(C)(C)c1ccc(C(=O)NNC(=O)c2cc(C(=O)NNC(=O)c3ccc(C(C)(C)C)cc3)cc(C(C)(C)C)c2)cc1
    · | -1.3
- CC(C)C1OC(c2cccc(NC(=O)c3ccc(F)cc3)c2)OCC1(C)C (centres undefined)
    12.0 | -1.0
- CC1CCN(C(=O)c2cccc3c2SCCC3=O)CC1
    2.0 | 0.7
- O=C(NCc1ccncc1)c1ccc(Oc2cc(Cl)cc(Cl)c2)o1
    · | -0.8
- Cc1ccc(C)c(NC(=O)c2cc(C)nn2-c2ccccc2)c1
    6.0 | 4.2
- COc1ccccc1/C=C/C=N/n1c(C)nnc1C
    -8.0 | -2.8
- CC(=O)N(C(C)=O)c1ccc2nc(C)[nH]c(=O)c2c1
    8.0 | 3.8

Going on with the list:
The line under a structure holds: S aureus helic | MgrA DNA FP
- COc1ccc(Cc2nnc(-c3ccc(C)cc3)o2)cc1OC
    16.0 | -1.4
- O=C1c2sc3nc4ccccc4n3c2C(=O)N1c1cc(Cl)ccc1Cl
    -46.0 | ·
- O=C(O)CC(c1ccccc1)c1ccco1 (centres undefined)
    4.0 | ·
- Cc1ccc(-c2csc(NC(=O)CCNC(=O)c3ccco3)n2)cc1
    17.0 | ·
- O=C(OCC(=O)N1CCCC1)c1ccc(-c2ccc(C(=O)OCC(=O)N3CCCC3)s2)s1
    -2.0 | ·
- COc1cc(NC(=O)c2nn3c(c2Cl)NC(c2cccs2)CC3C(F)(F)F)cc([N+](=O)[O-])c1 (centres undefined)
    · | 1.1
- O=C(NCC1CCN(Cc2cccc(Cl)c2)CC1)Nc1ccc2c(c1)OCCO2
    24.0 | ·
- O=C(NCc1ccco1)c1ccccc1NS(=O)(=O)c1ccc(F)cc1
    9.0 | 0.1
- CC1CCC(C(C)C)C(OCC(O)CN2CCN(Cc3ccccc3)CC2)C1 (centres undefined)
    -15.0 | ·
- C[n+]1cc2c3c(ccc2c2ccc4cc5c(cc4c21)OCO5)OCO3
    · | 7.7&38.4
- CN1CCN(c2ncnc3c2cnn3Cc2ccc(Cl)cc2)CC1
    -59.0 | ·
- Cc1c(Br)cc(C(=O)NC(C)C)c(C)c1C
    -10.0 | ·
- N#C/C(=N\OC(=O)c1cccs1)S(=O)(=O)c1cccs1
    · | -2.5
- O=C(CCCn1sc2ccccc2c1=O)N1CCCC1
    1.0 | 2.0
- CC(N=Cc1c(O)[nH]c2ccccc12)c1ccccc1 (centres undefined)
    -22.0 | ·
- CC(=O)N1CCc2cc(NC(=O)Nc3cccc(Cl)c3)ccc21
    -2.0 | 0.4
- CC(=O)Nc1cccc(C(=O)OCc2ccccc2)c1
    6.0 | -0.9
- O=C1C2C3c4ccccc4C(c4ccccc43)C2C(=O)N1Cc1ccccn1 (centres undefined)
    4.0 | 0.2
- O=c1c(Cl)c(Cl)cnn1-c1ccccc1
    5.0 | ·
- COc1ccc(-c2cc(=Nc3ccc(O)cc3)c3cc(C)ccc3o2)cc1
    9.0 | -0.2
- Cc1cc(C(=O)NC(C)C)on1
    -5.0 | ·
- CN(Cc1cccs1)C(=O)c1nc(-c2ccccc2)n(-c2ccccc2)n1
    -5.0 | ·
- CCc1ccc(NC(=O)C(C)OC(=O)/C=C/c2ccco2)cc1 (centres undefined)
    14.0 | ·
- CCCCn1c2nc3ccccc3nc2c2c(N)ncnc21
    5.0 | 0.6
- CC(C)CN1CCOC(CNC(=O)NC2CCCCC2)C1 (centres undefined)
    3.0 | ·
- COc1ccc(/C=C2/SC(N3CCN(C(=O)CN4C(=O)S/C(=C\c5ccccc5F)C4=O)CC3)=NC2=O)cc1
    · | -0.5
- N#Cc1cc(Sc2ccc(Cl)cc2)c(-n2nnc3ccccc32)cc1C#N
    14.0 | 0.8
- CCCn1c(=NC(=O)C(C)(C)C)sc2c(OC)ccc(OC)c21
    5.0 | ·
- N#CC1(C#N)C2CCCCC23OC(=N)C1(C#N)C(Cc1ccccc1)O3 (centres undefined)
    1.0 | -1.8
- C=CCC1(CC=C)CCCCN1
    16.0 | -2.5

Part of the list above, with values ahead of the structure:
S aureus helic | MgrA DNA FP | smiles
· | -0.5 | COc1ccc(/C=C2/SC(N3CCN(C(=O)CN4C(=O)S/C(=C\c5ccccc5F)C4=O)CC3)=NC2=O)cc1
5.0 | · | O=c1c(Cl)c(Cl)cnn1-c1ccccc1

Going on with the list:
The line under a structure holds: S aureus helic | MgrA DNA FP
- Cc1cccc(NC(=O)C23CCC(C)(C(=O)O2)C3(C)C)c1 (centres undefined)
    -19.0 | 0.3
- CCN1C(=O)C(=C2C=C(C)N(CCO)C(C)=C2)C(=O)N(CC)C1=S
    -5.0 | ·
- O=C(O)COc1ccc(Br)cc1CO
    6.0 | 5.4
- Cn1ccnc1SCC(=O)Nc1ccc(C#N)cc1
    -13.0 | -1.8
- COc1ccc(NC(=O)C2CC(=O)N(C)C(=Nc3cccc(C(F)(F)F)c3)S2)cc1 (centres undefined)
    · | -1.6
- CCNc1cc(N2CCC3(CC2)OCCO3)c2noc3c2c1C(=O)c1ccccc1-3
    -122.0 | ·
- CC(=O)NC12CC3CC(C1)CC(C(=O)OCC(=O)N1CCC(c4ccccc4)=N1)(C3)C2
    6.0 | ·

Source: PubChem BioAssay
